Compound activity: PubChem, several laboratories
Bead autofluor – compound fluorescence in toxin protease inhibitor counterscreen | compound autofluorescence counterscreen, microsphere flow cytometry; hits give high values | fluorescence intensity (test concentration not listed) | actives 3.1% (n = 360,000) | AID 624483;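 active = at least 3 SD above the mean of all compounds, about 16000 in these data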;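 also: 100 nL of 1 mM stock went into each well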
RN4220 kill – kills Staphylococcus aureus RN4220; inhibition, % (no concentration beside the values); actives 0.33% (n = 330,000); S. aureus RN4220 growth, OD600, 16 h;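 active = z-score of -3 or lower and OD600 up to 0.18 on both plates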;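 also: plate controls were untreated cells for no effect and reference antibiotic for full effect; stock transfer was 100 nL into about 80 µL; one replicate is shown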
Mtb hypoxia rep – Mtb hypoxia fluorescent reporter inhibition. actives 0.1% (n = 300,000). fluorescence inhibition, % (no concentration beside the values). M. tuberculosis hypoxia-regulated fluorescent reporter, fluorescence;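 active = 35 to 45% if threefold the growth effect, above 45% if 1.5-fold the growth effect; inactive = the rest, general growth blockers included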;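 also: wells of about 50 µL received 100 nL stock; 0% = vehicle wells and 100% = reference inhibitor wells; whole bacteria with a GFP reporter of the hypoxia response; strong numbers were not always called active; many hits fall short of the cut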
BJeLR lethal – kills HRASV12-expressing BJeLR cells; BJeLR (HRASV12) viability, CellTiter-Glo ATP luminescence, 48 h; reference of the scale not given here; inhibition, % (no concentration beside the values); actives 0.17% (n = 300,000); AID 1554;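 active = replicate mean above 50%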;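 also: 50 nL library stock added to about 25 µL; numbers are from one replicate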
ugtP null kill – compounds lethal to S. aureus RN4220 ugtP deletion mutant; growth inhibition, % (test concentration not listed); OD600 growth, 16 h; some inactives read as strong as hits; actives 0.54% (n = 330,000);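 active = z-score under -3 and OD600 up to 0.15 on both plates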;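 also: plate controls were untreated wells for no effect and antibiotic for full effect; wells of about 80 µL received 100 nL stock; the first replicate is given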
PrP UTR inh – suppresses PrP 5' UTR mRNA reporter expression; cell-based PrP 5' UTR mRNA reporter, plate reader; AID 488862; inhibition, % (concentration not given with the values); actives 0.35% (n = 340,000);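 active = every replicate at 50% or more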;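 also: 0 = median of the neutral control wells; tested in H4 reporter cells; numbers are from one replicate; inactives centre near -14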
Mtb hypoxia rep growth – also measured in Mtb hypoxia rep; calls as there; growth inhibition, %; measured here: M. tuberculosis growth (absorbance);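 0% = vehicle and 100% = reference antibiotic; read after six days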
Active calls of the source: *; · = not tested or not shown; & = joins results of further samples; ! = a repeat was not active.

SMILES	Bead autofluor	RN4220 kill	Mtb hypoxia rep	Mtb hypoxia rep growth	BJeLR lethal	ugtP null kill	PrP UTR inh
COc1cc(OC)c(OC)cc1/C=N/NC(=O)c1cccc(S(=O)(=O)N2CCOCC2)c1	4591	·	·	·	-18	·	-29
COc1ccc(N2CCN(CCC(=O)c3ccc4ccccc4c3)CC2)cc1	3708	2.4	0	1	-12	23	-6
COc1ccccc1N1CCN(CC(=O)Nc2nc(C)c(C(=O)N(C)C)s2)CC1	3031	-0.2	11	5	4	8	-18
CC(=O)c1ccc(N2CCN(S(=O)(=O)c3c(C(=O)N4CCCCC4)c(C)n(C)c3C)CC2)cc1	4400	0.7	4	-9	16	6	7
CC1CCC(NC(=O)C2CC(=O)N(c3ccc4c(c3)OCCO4)C2)CC1 (stereo unspecified)	4697	6.7	12	3	3	10	-11
O=C(CSc1ncnc2c1cnn2CCO)Nc1cccc(C(F)(F)F)c1	7178	12	8	5	-8	3	-22
CCCN1CCN(C(=O)CCCNC(=O)c2ccc(Cl)cc2)CC1	3325	5.5	6	6	-11	8	-24
Cc1cc(C(=O)C(C)OC(=O)C2=NNC(=O)CC2)c(C)n1-c1ccc(OC(F)F)cc1 (stereo unspecified)	3482	4.1	5	7	-3	6	-12
CC[C@@]12C(=O)N(c3ccc(OC)cc3)C(=O)N1[C@H](c1ccc(Cl)cc1)[C@@H]1C(=O)N(C3CCCCC3)C(=O)[C@@H]12	4053	·	·	·	13	·	-15
O=C(Nc1ccc(F)cc1)Nc1ccc(Oc2ncnc3cc(Cl)ccc23)nc1	4760	1.9	-1	1	3	2	-8
O=C(c1cc2c(s1)CCC2)N1CCN(c2ccccc2)CC1	2450	2.8	6	8	10	2	-9
CCCCC1=CC2=CC(=O)C(C)(OC(=O)CC)C(=O)C2=CN1C1CCCC1 (stereo unspecified)	3450	5.7	-2	10	7	-3	-1
COc1ccc(-c2nsc(SCC(=O)NCC3CCCO3)n2)cc1 (stereo unspecified)	4346	3.4	26	19	3	6	-13
COC(C(=O)Nc1cccc([N+](=O)[O-])c1)c1ccccc1 (stereo unspecified)	2450	3.4	-4	0	-1	4	-13
CCSC1=C(C#N)C(c2ccc(C)o2)CC(=O)N1 (stereo unspecified)	5634	1.6	7	3	3	-1	-27
OCC[C@H]1C[C@H](O)[C@@H](O)[C@]2(CCCO2)O1	3232	·	·	·	1	·	-19
O=C(NN1C(=O)/C(=C/c2ccc(O)c(O)c2)SC1=S)c1ccccc1	4128	·	·	·	19	·	-39
Cc1ccc(-n2ncc3c2CCCC3NC(=O)c2csnn2)cc1C (stereo unspecified)	5508	-2.9	-4	0	6	-9	-1
Cc1noc(C)c1S(=O)(=O)Nc1ccc(C(=O)N2CCC(C)CC2)cc1	·	7.3	15	3	·	3	·
O=C(CC1SC(=Nc2ccc(O)cc2)NC1=O)Nc1ccccc1 (stereo unspecified)	3439	-0.3	-12	10	3	-3	15
CN1CCc2c(sc3nc(SCC(=O)N4CCOCC4)n(-c4ccc(Cl)cc4)c(=O)c23)C1	5642	4.4	-1	7	-3	-4	-7
O=C(c1ccc(Cl)cc1)N1CCN(c2ncccn2)CC1	3601	2.2	16	12	-2	25	·
CCCN(C(=O)c1ccco1)c1nnc(-c2cccc(C)c2)s1	3624	0.6	4	7	3	7	-63
CC1CCN(CCCCOc2ccccc2F)CC1	4189	2.6	2	10	0	20	-40
CCOC(=O)c1cc2sccc2n1CCCN1C(=O)c2ccccc2C1=O	12456	4.1	7	10	3	-16	-13
Cc1coc(C)c1C(=O)CC1(O)C(=O)N(Cc2ccccc2)c2ccccc21 (stereo unspecified)	3131	1.1	4	5	-10	-1	-15
Cc1cc(C)c(CSc2ncnc3nc[nH]c23)c(C)c1	4331	-6.6	-5	4	-3	-10	-6
Nc1nnc(SCC(=O)c2ccc3c(c2)NC(=O)CO3)s1	5229	9.5	14	10	7	0	-22
O=C(O)c1ccc(NS(=O)(=O)/C=C/c2ccccc2)cc1	4858	-1.8	·	·	4	-4	-15
CCC(=O)Nc1sc2c(c1C#N)CC(C)(CC)OC2 (stereo unspecified)	15506	4.1	18	10	-8	2	-11
CC(C)(C)C(=O)Nc1nc(NC(=O)C(C)(C)C)nc(-c2ccccc2Cl)n1	5669	1.0	0	10	-7	5	-47
c1ccc(-c2csc(CN3CCCCC3)n2)cc1	3392	2.5	13	9	·	10	-96
Cc1ccc2nc(-c3cccc(SC4CCCCC4)c3)c(NC3CCCCC3)n2c1	3177&4369	-2.6	5	5	·	8	-1
C/C(CC(=O)Nc1cccc(Cl)c1Cl)=N\NC(=O)c1ccccc1C	5349	·	·	·	-9	·	-3
Cn1nc(C(=O)NCc2cccs2)c2ccccc2c1=O	2246	1.7	0	-13	6	6	-22
CC(C)CCn1nnnc1C(c1ccccc1)N1CCC(C(N)=O)CC1 (stereo unspecified)	4832	1.2	·	·	6	5	-6

Single records, as listed above. Order of screens: Bead autofluor	RN4220 kill	Mtb hypoxia rep	Mtb hypoxia rep growth	BJeLR lethal	ugtP null kill	PrP UTR inh
Results for `O=C(c1ccc(Cl)cc1)N1CCN(c2ncccn2)CC1` → 3601	2.2	16	12	-2	25	·
Results for `Nc1nnc(SCC(=O)c2ccc3c(c2)NC(=O)CO3)s1` → 5229	9.5	14	10	7	0	-22
Results for `CCCN(C(=O)c1ccco1)c1nnc(-c2cccc(C)c2)s1` → 3624	0.6	4	7	3	7	-63
Results for `C/C(CC(=O)Nc1cccc(Cl)c1Cl)=N\NC(=O)c1ccccc1C` → 5349	·	·	·	-9	·	-3
Results for `O=C(CC1SC(=Nc2ccc(O)cc2)NC1=O)Nc1ccccc1` (stereo unspecified) → 3439	-0.3	-12	10	3	-3	15

(listing goes on)
SMILES	Bead autofluor	RN4220 kill	Mtb hypoxia rep	Mtb hypoxia rep growth	BJeLR lethal	ugtP null kill	PrP UTR inh
Cc1nnc(NC(=O)C(C)Oc2ccc3c(C)cc(=O)oc3c2)s1 (stereo unspecified)	2792	1.0	·	·	-10	-1	-24
c1ccc(C(c2ccccc2)N2CCN(c3nc4ccccc4n4cnnc34)CC2)cc1	·	-9.5	·	·	-5	-7	·
CC1CCCC(NC(=O)CCS(=O)(=O)c2ccc3c(c2)NC(=O)CS3)C1C (stereo unspecified)	5227	4.4	-8	7	-1	3	-19
CN(C)c1nc(OCCNC(=O)Nc2ccccc2)nc(N2CCOCC2)n1	2723	2.2	8	11	-6	2	-1
Cc1[nH]n(-c2ccccc2)c(=O)c1C=NNC(=O)C(C)C	·	3.1	1	2	·	-4	·
O=C(NCc1ccco1)Nc1ccc2nsnc2c1	2344	-0.8	3	10	6	-3	-19
O=C(c1ccc(Cn2cc(Cl)cn2)cc1)N1CCN(c2ccccc2)CC1	9205	-0.8	4	8	1	-2	-26
Cc1ccc(S(=O)(=O)NN=Cc2cn(CC(N)=O)c3ccccc23)cc1	·	1.4	14	1	·	9	·
COC(CNC(=O)c1c[nH]c2ccc(S(=O)(=O)N3CCOCC3)cc2c1=O)OC	4134	4.6	3	-8	-14	11	-12
Cc1ccc(C(=O)N/C(=C\c2ccco2)C(=O)NCCN2CCOCC2)cc1C	4540	-2.0	2	4	1	-3	8
CCOC(=O)c1c(C)c(-c2ccccc2)n(CC(=O)NCCC(C)C)c1C	4474	-15	0	-1	2	-7	-18
CCCC(=O)Nc1ccc(NC(=O)Cc2ccccc2)cn1	4590	-0.8	·	·	-5	8	-13

Look-ups from the list:
c1ccc(C(c2ccccc2)N2CCN(c3nc4ccccc4n4cnnc34)CC2)cc1 @ ugtP null kill: -7
Cc1[nH]n(-c2ccccc2)c(=O)c1C=NNC(=O)C(C)C @ ugtP null kill: -4

New compounds follow
SMILES	Bead autofluor	RN4220 kill	Mtb hypoxia rep	Mtb hypoxia rep growth	BJeLR lethal	ugtP null kill	PrP UTR inh
CN(NC1OC(=O)c2ccccc21)c1ccc(Cl)cc1[N+](=O)[O-] (stereo unspecified)	4148	4.1	21	15	-2	4	-5
CC(C)Cn1c(N)c(C(=O)COC(=O)c2ccc(Cl)cc2)c(=O)n(C)c1=O	3950	-7.2	8	2	5	1	-29
Fc1cccc(NCc2ccoc2)c1	11380	5.0	6	-2	9	-3	-3
CCCS(=O)(=O)N1CCC(C(=O)N2CCCC2)CC1	2353	6.1	11	3	-18	0	-22
CCCCOC(=O)c1ccc(NC(c2ccc(C)cc2)P(=O)(OC)OC)cc1 (stereo unspecified)	2015	3.3	6	7	-11	-4	-9
CSCCC(NC(=O)c1ccco1)C(=O)N1CCN(Cc2ccccc2)CC1 (stereo unspecified)	5636	0.7	-7	-3	-2	0	-2
COc1ccc(N2C(=O)c3ccc(C(=O)Nc4cc(OC)ccc4OC)cc3C2=O)cc1	3736	0.5	-13	7	4	-4	-8
Nc1ccc(-c2cc(N)n(-c3ccccc3)n2)cc1	3277	-10	0	9	15	-4	-30
Cc1cccc(N2CCN(C(=O)c3cccc(N4CCCC4=O)c3)C(C)C2)c1 (stereo unspecified)	4721	-0.9	6	-5	3	6	-16
Cn1c(CN2CCCCC2)nc2cc(NC(=O)c3ccccc3)ccc21	22188*	0.8	3	6	8	5	-26
CCOc1ccc(NC(=O)CCCOc2cc(=O)n(C)c3ccccc23)cc1	4391	-1.2	4	2	-22	-3	-20
CN(C1=NC(=O)C(CC(=O)O)S1)c1ccc(O)cc1 (stereo unspecified)	3392	3.4	-4	-2	-3	3	-19
Cc1ccc(C(=O)NN=Cc2ccc(OC(=O)c3cccc(F)c3)cc2)cn1	·	0.4	-2	-5	·	-7	·
CC(C)NC(=O)c1ccccc1NC(=O)C1COc2ccccc2O1 (stereo unspecified)	4641	5.7	·	·	10	-1	-11
CC(=O)Nc1ccc(C(C#N)c2ccccc2)cc1 (stereo unspecified)	4191	3.9	7	-4	5	8	-10
CCOC(=O)c1c(C)[nH]c(C)c1C(=O)COC(=O)[C@@H]1CCCN1S(=O)(=O)c1ccc(Cl)cc1	10340	1.3	5	3	-9	-3	·
COCCNc1oc(COc2cccc(C)c2)nc1C#N	4827	3.0	·	·	15	6	-7
CCN(CC(=O)Nc1c(F)cccc1F)C(=O)CCNS(=O)(=O)c1ccccc1C(F)(F)F	6923	0.7	-5	0	5	4	-37
Cc1cc(C)c(S(=O)(=O)c2cccc(Cl)c2)c(=O)[nH]1	3661	0.7	-11	0	-8	-3	-26
CCC1(CC)NC(=O)N(CC(=O)NCc2ccc3c(c2)OCO3)C1=O	3254	3.6	·	·	-2	1	-3
Cc1cc(Cl)ccc1NC(=S)N(CCCN1CCOCC1)Cc1cccs1	10181	5.1	2	5	3	3	-14
COC(=O)c1c(S(C)(=O)=O)nc(-c2ccccc2)[nH]c1=O	2519	4.5	5	12	-6	2	3
CN1CCc2c(c3ccccc3n2Cc2ccccc2)C1	5706&4281	-9.0	10	12	3	15	58*!
CC(=O)Oc1cccc(N2C(=O)C3C4C=CC(CC4)C3C2=O)c1 (stereo unspecified)	4048	0.3	11	-2	2	4	-4
CC(=O)c1c(Cl)nc2cccc3c2c1-c1ccccc1C3=O	3021	·	·	·	3	·	15
COc1ccc(C(=O)NC2CCCc3c2cnn3-c2ccccc2F)o1 (stereo unspecified)	5738	-1.2	-1	9	19	-3	3
Cc1ccnc(NC(=O)Cc2ccc([N+](=O)[O-])cc2)c1	5392	5.8	4	2	-1	5	-9
Cc1cc(C)n(CC(=O)NN=Cc2ccc([N+](=O)[O-])s2)n1	·	23	-7	-6	·	24	·
COc1cc(F)c(C2=CC(=O)C[C@H](c3ccc4c(c3)OCO4)C2)cc1F	3409	-16	2	13	·	-9	-9
CC(=O)c1ccc(NC(=O)CSc2nnc(Cn3cnc4ccccc43)o2)cc1	3831	1.7	10	6	25	0	-11
COc1ccc(S(=O)(=O)CCC(=O)Nc2ccc(OC)cc2OC)cc1	7777	7.7	2	3	3	13	16
COCC(=O)Nc1ccc(OC)c(Cl)c1	3344	1.7	4	-3	5	4	-23
CCOc1ccc(C(=O)N(CC)CC(=O)Nc2ccc3c(c2)OCCO3)cc1	5249	1.4	5	6	·	3	-39
O=C(COC(=O)Cc1ccc2c(c1)OCCO2)Nc1ccc(S(=O)(=O)N2CCCC2)cc1	2701	2.3	·	·	-9	-6	-17
COc1ccc(C)cc1NC(=O)c1cc2c(s1)CCC2	2218	15	15	11	-5	8	-26
OC(CNC1CCCC1)COc1ccc(-c2ccccc2)cc1 (stereo unspecified)	3196	14	5	10	8	-8	-2

An unsorted share of the library; 4% or so of the library scored in one or more.
